# High-throughput results deposited in PubChem by several laboratories.
# Insulin prom inh: TRM-6 insulin promoter activity inhibition | TRM-6 cells (human fetal islet line), insulin promoter-eGFP reporter, imaging; reporter expression induced with tamoxifen | inhibition, % at 2 µM | hit rate 0.9% among 130,000 | AID 1273;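 active means inhibition above the mean plus 3 SD, with well images judged a real hit on visual review, cut at about 60% in these data, passing the limit was not always enough; inconclusive means inhibition over the cutoff but images rejected on review; inactive means inhibition not above the cutoff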
# PKD1 inh: PKD1 (human) kinase inhibition | Q15139 | PKD1 kinase fluorescence polarization assay | inhibition, %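 (about 10 µM by stock and volumes)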 | hit rate 0.056% among 200,000;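 active means inhibition of 50% or more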;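 further: controls were vehicle for no effect and a reference inhibitor for full effect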
# Target sequence (Q15139 whole entry, looked up): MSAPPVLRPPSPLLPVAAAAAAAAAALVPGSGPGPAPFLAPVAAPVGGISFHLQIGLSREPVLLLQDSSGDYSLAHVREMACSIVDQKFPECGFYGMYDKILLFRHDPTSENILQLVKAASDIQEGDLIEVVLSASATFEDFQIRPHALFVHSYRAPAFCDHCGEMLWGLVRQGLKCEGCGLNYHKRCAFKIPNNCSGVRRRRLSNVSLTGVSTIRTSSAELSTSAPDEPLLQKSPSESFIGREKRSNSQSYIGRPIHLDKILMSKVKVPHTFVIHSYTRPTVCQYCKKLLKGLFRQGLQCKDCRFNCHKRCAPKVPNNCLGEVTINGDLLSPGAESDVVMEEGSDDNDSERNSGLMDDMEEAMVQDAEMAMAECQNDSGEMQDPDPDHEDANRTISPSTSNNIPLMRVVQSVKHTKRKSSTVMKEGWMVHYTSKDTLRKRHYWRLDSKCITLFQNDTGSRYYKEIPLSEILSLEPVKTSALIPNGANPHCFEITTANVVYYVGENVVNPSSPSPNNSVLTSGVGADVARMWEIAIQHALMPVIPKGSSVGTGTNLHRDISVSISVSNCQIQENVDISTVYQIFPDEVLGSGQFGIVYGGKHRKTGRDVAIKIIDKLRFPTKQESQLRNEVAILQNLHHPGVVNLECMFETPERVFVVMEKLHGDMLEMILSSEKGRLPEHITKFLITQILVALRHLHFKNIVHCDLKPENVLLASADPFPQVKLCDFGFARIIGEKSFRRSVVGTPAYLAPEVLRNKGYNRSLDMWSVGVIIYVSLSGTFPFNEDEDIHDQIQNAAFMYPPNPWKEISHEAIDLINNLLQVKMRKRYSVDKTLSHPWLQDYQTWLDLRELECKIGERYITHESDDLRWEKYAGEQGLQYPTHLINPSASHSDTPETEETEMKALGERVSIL
# GALR2 ag: activates the human galanin receptor 2; AID 803; activation, %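 (tested at 5 µM)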; hit rate 0.48% among 140,000; O43603; GALR2-expressing cells, agonist activation read-out;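 active means above mean plus 3 SD of all compounds, about 5% in these data, not always enough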;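 further: 0% = vehicle buffer wells and 100% = reference agonist at full effect; tested in CHO reporter cells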
# HSV augment: increases HSV replication in cells | HSV replication augmentation in cells, fold increase | hit rate 0.005% among 220,000 | maximum fold increase;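 active means peak rise of 1.5-fold or more in the series; inconclusive means self-fluorescent or not available for retest; tested in PC3 cells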;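 further: first round at 10 µM; read as green reporter fluorescence; hits show the peak of a series up to 25 µM; 1 = signal of infected wells without compound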
# RGS16-Gao HTS: regulators of human RGS16-Galphao interaction; O15492+P09471; bead-based flow cytometry RGS16-Galphao binding, fluorescence; actives lie on both sides; binding response (% of control), % at 10 µM; hit rate 0.38% among 220,000; AID 1441;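 active means below 25% or above 175%, edge rows of some plates excepted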;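 further: Galphao activated by GDP with aluminum fluoride before binding; 100% = wells without compound and 0% = beads without RGS; some results beyond the cut were filed as inactive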
# Insulin prom inh cell count: also measured in Insulin prom inh; calls as there; normalized cell count, %; measured here: cell count, toxicity; reference of the scale not given here;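 cells exposed to compound for 48 h; stained nuclei by imaging scaled within each plate; lower means fewer cells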
# HSV augment primary fold: recorded beside HSV augment, whose call it bears; fold increase; compound at 10 µM; measured here: primary screen fold increase 10 uM; tested in PC3 cells;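 GFP signal in the first replicate; 1 = infected wells without compound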
# * = called active by the depositor; i = inactive; ? = inconclusive; nt = not tested or not shown.
canonical_smiles	Insulin prom inh	Insulin prom inh cell count	PKD1 inh	GALR2 ag	HSV augment	HSV augment primary fold	RGS16-Gao HTS
CCOC(=O)C1CCN(c2c(NC3CCCCCCC3)c(=O)c2=O)CC1	nt	nt	-17	-2.3	i	1	106
CCOC(=O)c1[nH]c(C)c(CC(C)C)c1C	nt	nt	3	nt	i	0.97	97
COc1ccc(OCc2nnc3n2N=C(c2ccc(OC)cc2)CS3)cc1	nt	nt	-5	-4.4	i	0.97	97
COc1ccccc1CNC(=O)CCn1c(=O)oc2ccccc21	nt	nt	-9	-0.3	i	0.82	108
CC1(C)Cc2nc3oc4c(=O)n(CC(=O)Nc5cccc(Cl)c5)cnc4c3cc2CO1	nt	nt	nt	nt	i	0.67	99
COc1ccc(NC(=O)c2cc(-c3ccccc3Cl)no2)cc1	-50	78	0	-0.2	i	1	109
COc1ccc(-c2csc(NC(=O)c3ccccc3C(=O)O)n2)cc1	nt	nt	0	nt	i	1.2	105
Cc1ccc(F)cc1NC(=O)c1cnccn1	-29	74	-2	nt	nt	nt	111
C=CCn1c(-c2cccc(OC)c2OC)n[nH]c1=S	16	60	5	nt	i	1.3	98
Cn1c(=O)oc2cc(S(=O)(=O)NCCC(=O)NC3CCCC3)ccc21	-48	97	-8	0.6	i	1.1	97
CCOC(=O)Nc1ccc([N+](=O)[O-])cc1OC	15	121	6	2.8	i	1.1	nt
CCNC(=S)N1CCN(CCNC2=CC(=O)CC(C)(C)C2)CC1	nt	nt	-4	nt	i	1.1	99
C=CCn1c(=NC(=O)C2COc3ccccc3O2)sc2cc(S(N)(=O)=O)ccc21 (configuration not stated)	-12	161	1	-0.7	i	0.84	105
CNc1nc(-c2ccc([N+](=O)[O-])cc2)cs1	nt	nt	0	-1.2	i	1	96
COC(=O)C1C(=O)C2=C(CC1C)NC(C)=C(C(=O)OCc1ccc(OC)cc1)C2c1ccc(C)o1 (configuration not stated)	-205	68	7	-3.2	i	0.85	96
CCOC(=O)N1CCN(C(=O)c2ccc(NS(C)(=O)=O)cc2)CC1	-50	131	3	-0.9	i	1.1	105
COc1cc(/C=N/NC(=O)CSc2cc(C)c(Br)cc2C)ccc1O	5	74	3	-2.1	i	0.79	90
COc1cc(/C=C2\C(=O)N(CCC#N)N=C2C)c(Br)cc1OC(C)C	nt	nt	-8	-4.3	i	0.97	72
COCC(=O)Oc1c(Sc2ccccc2[N+](=O)[O-])c(C)nn1C(C)(C)C	-47	82	-6	nt	i	1.1	71
COc1cccc(CNC(=O)CCC2CCCN(C(=O)c3cscn3)C2)c1 (configuration not stated)	nt	nt	-4	nt	i	0.96	101
C[C@H](N)c1nnc(SCc2c(Cl)cccc2Cl)o1	54	89	-10	-1.1	i	0.89	103
COc1ccc(N2CCN(C(=O)CN(CCc3ccccc3)S(C)(=O)=O)CC2)cc1	-14	90	8	-0.8	i	0.93	102
Cc1cc(C)nc(NC(=O)/C=C/c2ccccc2Cl)n1	26	113	-2	-1.0	i	0.91	114
COc1ccnc(Oc2ccc(F)cc2)c1C(=O)N/C=N/OCc1ccc(F)cc1	-11	93	1	-0.2	i	1.1	103
Oc1ccc(Nc2nnc(-c3ccc(O)cc3)c3ccccc23)cc1	-6	65	-2	nt	i	0.88	107
CCOC(=O)c1nn(-c2cc(C(=O)OC)cc(C(=O)OC)c2)cc1O	27	114	-11	-0.5	i	0.78	98
Cc1ccc(NC(=O)Cn2cccc2)c(Br)c1	nt	nt	2	-2.1	i	0.81	105
COc1ccccc1-n1c(-c2ccc(Cl)cc2)c[nH]c1=S	nt	nt	-5	nt	i	0.89	98
O=C(CSc1nnc(-c2ccccc2Br)o1)N1CCc2ccccc2C1	nt	nt	5	-0.9	i	0.9	88
O=C(O)CCCn1cc(NC(=O)c2ccco2)cn1	nt	nt	-2	nt	i	0.9	96
CCOc1ccc(NN=C(C(=O)OC)C(=O)OC)c([N+](=O)[O-])c1	nt	nt	nt	nt	i	1.1	102
CC(=O)c1ccc(OCC(O)CN2CCN(CCO)CC2)cc1 (configuration not stated)	nt	nt	-11	-0.9	i	0.85	101
CC(=O)N1C(C)(C)CC(=NOC(=O)c2ccccc2)CC1(C)C	8	54	2	nt	i	1	100
Clc1ccc(-c2nnc(-c3ccccc3)nc2-c2c[nH]c3ccccc23)cc1	50	129	5	nt	i	0.87	112
CCCOc1ccc(NC(=O)OC2CCN(C)CC2)cc1	nt	nt	-5	-0.3	i	0.81	107
O=C(CCNC(=O)c1ccccc1Cl)Nc1ccc(Cl)c(C(F)(F)F)c1	-25	141	-9	-0.2	i	0.73	101
NC(=O)COC(=O)c1ccc(C(=O)C(=O)c2ccccc2)cc1	29	141	-1	nt	i	1	110
CCC(NC(=O)Nc1nccs1)(C(F)(F)F)C(F)(F)F	-17	132	-4	-1.4	i	1	98
CCn1cc([C@@H]2C[C@H]3CN(Cc4cccc(Cl)c4)C(=O)[C@]34CCCN24)cn1	nt	nt	4	nt	i	1	120
CC1(NC(=O)NCc2ccco2)CCS(=O)(=O)C1 (configuration not stated)	-10	91	-10	-0.6	i	0.88	113

# An excerpt from above in order of their number in RGS16-Gao HTS, largest number first:
SMILES	PKD1 inh	GALR2 ag	HSV augment	HSV augment primary fold	RGS16-Gao HTS
Oc1ccc(Nc2nnc(-c3ccc(O)cc3)c3ccccc23)cc1	-2	nt	i	0.88	107
CC(=O)N1C(C)(C)CC(=NOC(=O)c2ccccc2)CC1(C)C	2	nt	i	1	100
O=C(O)CCCn1cc(NC(=O)c2ccco2)cn1	-2	nt	i	0.9	96

# Looked up above:
# PKD1 inh with Cc1ccc(NC(=O)Cn2cccc2)c(Br)c1 = 2
# GALR2 ag with O=C(CSc1nnc(-c2ccccc2Br)o1)N1CCc2ccccc2C1 = -0.9

# The list continues.
canonical_smiles	Insulin prom inh	Insulin prom inh cell count	PKD1 inh	GALR2 ag	HSV augment	HSV augment primary fold	RGS16-Gao HTS
O=[N+]([O-])c1cc(Cl)cc(/C=N\Nc2ccccn2)c1O	-4	126	4	-3.3	i	0.8	99
CCn1cc(C(=O)O)c(=O)c2cc(F)c(N3CCN(C(=S)Nc4ccccc4OC)CC3)cc21	nt	nt	nt	nt	i	0.88	102
COc1ccc(-c2nc(C#N)c(NCC3CCCO3)o2)cc1OC (configuration not stated)	39	53	-5	-1.5	i	1.1	103
CC(C)N(Cc1ccccc1)C(=S)NCCN1CCOCC1	6	97	0	nt	i	1.1	102
Cc1[nH]n(-c2ccccc2)c(=O)c1C=Nc1ccc(S(N)(=O)=O)cc1	nt	nt	nt	nt	i	0.88	102
COc1ccc(OC)c(C(=O)c2coc3ccc(OCC(=O)O)cc23)c1	10	153	1	-0.7	i	1	102
Cc1cc(N/N=C/c2ccc([N+](=O)[O-])o2)nc2ccccc12	nt	nt	-7	nt	?	nt	98
Cc1ccc(S(=O)(=O)NC(=O)NCCc2ccccc2)cc1	nt	nt	10	nt	i	1	104
COc1cccc(C2CC(c3ccccc3Cl)n3nc(N)nc3N2)c1 (configuration not stated)	43	141	-2	-0.9	i	0.84	93
CC(C)(C)OC(=O)NCCc1nnc(SCC(=O)Nc2ccc(Br)cc2)o1	nt	nt	nt	nt	i	0.93	102
O=C(Nc1c(-c2ccccc2)nc2ccc(Cl)cn12)c1cccs1	-22	172	-14	-0.2	i	0.94	100
COc1cc(-c2nnc(SCC(=O)c3ccc(C)cc3)o2)cc(OC)c1OC	-12	128	-8	-1.2	i	0.93	105
COC(=O)c1c(-c2c(Cl)cccc2Cl)noc1C(=O)NNC(=O)N(C)C	nt	nt	nt	nt	i	0.95	104
COc1ccc(OCc2nnc(SCC(N)=O)n2-c2ccccc2OC)cc1	-160	98	-5	-1.3	i	0.99	95
CC1=C(C#N)C(c2cccnc2)C2=C(CC(c3ccc(Cl)cc3)CC2=O)N1 (configuration not stated)	43	97	-2	1.1	i	0.8	100
CCOC(=O)N1CCN(C(=O)c2sc3nc(-c4ccc(F)cc4)cn3c2C)CC1	nt	nt	-7	0.0	nt	nt	109
COc1ccc(C(=O)ON=C2CCN(C)CC2)cc1	-7	86	-8	nt	i	0.88	18
C=CCc1cc(C(=O)N2CCCCC2)ccc1O	14	128	-6	-1.9	i	0.88	103
CCOCCCNCc1ccc(OCc2ccc(F)cc2)c(OC)c1	nt	nt	-5	nt	i	0.99	99
CCCCn1c(-c2ccoc2C)n[nH]c1=S	-7	107	5	-1.2	i	0.94	107
O=C(Nc1cccc(C(F)(F)F)c1)c1ccc(-n2cncn2)nc1	nt	nt	2	nt	i	0.98	100
Cc1ccccc1OCCNc1cc(N2CC(C)NC(C)C2)ccc1[N+](=O)[O-] (configuration not stated)	nt	nt	-6	nt	i	0.49	105
CC1CN(Cc2ccccn2)CCC1=O (configuration not stated)	-30	120	-4	0.0	i	0.94	97
CCc1ccc(OCCCOc2ccc(C=O)cc2)cc1	-386	89	0	-1.9	i	0.82	100
c1ccc(CCNc2nc3ccccc3s2)cc1	25	109	-2	-0.8	i	0.88	84
CCOc1ccc(C(=O)OCn2nnc3ccccc3c2=O)cc1OC	nt	nt	-6	0.2	i	0.85	107
CC(C)C(c1nnnn1C1CCCC1)N1CCOCC1 (configuration not stated)	-469	72	-6	-3.7	i	1.1	107
COc1cc(OC)c2c(N)c(C#N)c(C(F)(F)C(F)(F)F)nc2c1	-2	147	-10	-0.7	i	1	103
COc1ccc2oc(=N)c(-c3nnc4n3CCCCC4)cc2c1	-450	57	-5	-2.2	i	0.81	99
Cc1ccc(S(=O)(=O)N2CCOCC2)cc1C(=O)OCC(=O)N1c2ccccc2NC(=O)C1(C)C	22	96	7	0.7	i	1	102
N#Cc1c(N)nc2c(c1-c1ccncc1)CCCCCC2	-450	83	-3	-1.5	i	1.1	nt
CC(C)[C@H](NC(=O)c1ccccc1F)C(=O)Nc1nc2c(s1)CCCC2	4	92	-12	-1.6	i	0.9	108
CCOCCCNC(=O)c1[nH]c(C)c(C(C)=O)c1C	62	77	4	0.5	i	0.83	94
Cc1cc(C)n(-c2c(C)[nH]c3ccccc23)n1	15	57	3	nt	i	1	94
Cc1nc2c(cc1C(=O)N/N=C/c1ccc([N+](=O)[O-])cc1)c(=O)n(C)c(=O)n2C	-31	129	-3	-0.2	i	1	111
O=C(CSc1nnc(-c2cccnc2)s1)Nc1ccc(C(=O)O)cc1	nt	nt	-6	-0.1	i	0.9	95
CC(NC(=O)/C=C/c1ccco1)c1nc2ccccc2n1Cc1cccc(Cl)c1 (configuration not stated)	nt	nt	-5	0.0	nt	nt	103
CCOc1ccc(NC(=O)C(=O)N/N=C\c2ccc(CNS(=O)(=O)c3ccccc3)o2)cc1	nt	nt	-10	5.7*	i	0.66	76
Cc1ccc(-c2nc(N)s[n+]2-c2ccccc2)cc1	14	93	-3	-2.8	i	1.1	133
COc1ccc(-c2c(C)n([O-])c3c([n+]2=O)CCC3)cc1OC	31	102	-6	-1.5	i	1	93
COc1ccc(Nc2cc(=O)n(-c3ccccc3)c3c2c(=O)n(C)c(=O)n3C)cc1	nt	nt	nt	nt	i	1.1	102
CSc1ccccc1Sc1cc(C(=O)O)c2ccccc2n1	44	39	-2	-2.1	i	0.99	113
O=C(Nc1ccc(Br)c(Cl)c1)c1ccco1	31	103	8	-2.2	i	0.84	100
O=C(Cc1c(Cl)cccc1Cl)OCC(=O)N1CCN(C(=O)c2ccco2)CC1	nt	nt	-6	nt	i	0.9	102
COc1ccc2c(c1)C(=NN)c1cc(OC)ccc1-2	-54	68	-4	-1.8	nt	nt	94
O=C(N/N=C/c1cccc([N+](=O)[O-])c1)c1cnccn1	6	130	-4	-1.2	i	1	108
O=C(Cn1c2ccccc2c(=O)c2ccccc21)N/N=C/c1cc([N+](=O)[O-])ccc1N1CCCCCC1	nt	nt	5	-1.1	i	0.84	nt
O=c1c2ccccc2n(Cc2ccc(Cl)cc2)c(=O)n1Cc1ccco1	-62	98	12	-1.0	i	0.97	95
COc1ccc(C)cc1-n1c(SCC(=O)Nc2cccc(C(=O)O)c2)nc2ccccc2c1=O	nt	nt	nt	nt	i	1	96
Cc1cc(Cl)ccc1OCC(=O)NCCCCc1ccccc1	nt	nt	-8	-2.3	i	0.92	101

# Hits appear at their usual frequency; any-hit rate near 1.3%.
